High-throughput results from PubChem BioAssay.
NPYLR7 agonist – agonists of mosquito NPYLR7 receptor, primary screen, cell-based, Aedes aegypti, calcium fluorescence, mosquito biting behavior | Aedes aegypti neuropeptide Y-like receptor 7 (NPYLR7) | HEK293T NPYLR7/Galpha15, GCaMP6s calcium fluorescence | activation, % at 10 µM | hit rate 0.15% among 270,000 | AID 1259423, 2018; in the data active = activation above about 40%;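 note: 0% = vehicle and 100% = reference agonist at the receptor; some compounds past the cut are filed as inactive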
NPYLR7 agonist max-min – recorded beside NPYLR7 agonist, whose call it bears; activation, %; measured here: Max-Min RFU normalised activation; some inactives read as strong as hits;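 span of the calcium signal over five minutes; 0% = vehicle and 100% = native peptide agonist; compound fluorescence can raise it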
An asterisk follows results filed as active; & = joins results of further samples. The list is partial. The share of hits here may be higher or lower than overall.

SMILES	NPYLR7 agonist	NPYLR7 agonist max-min
COc1ccccc1NC(=O)NCCS(=O)(=O)c1c(C)n(Cc2ccccc2)c2ccccc12	4	8
Cc1ccc2c(c1)CN(CC(=O)NCc1cn3c(C)cccc3n1)CC(c1ccsc1)O2 (stereo not drawn)	-5	-5
O=C(Nc1nnc(C(F)(F)F)s1)c1ccco1	-5	-14
O=C(Cn1nc(-c2cccs2)c2sc(N3CCOCC3)nc2c1=O)NCc1ccccc1	-1	-6
Cc1nn(-c2ccccc2)c(Cl)c1C(=O)NC(C)CCCC(C)C (stereo not drawn)	-2	-2
CCCCC(CC)C(=O)Nc1ccc(N2CCCC2)c(C(=O)NCC(C)C)c1 (stereo not drawn)	-8	-3
CC(=O)c1cccc(S(=O)(=O)N2CCN(CC(=O)NC3(C#N)CCCCC3)CC2)c1	10	13
Cc1ccc(CNC(=O)CCC2CCCN(Cc3cccc4cccnc34)C2)o1 (stereo not drawn)	12	-1
O=C(CCN1CCCCC1c1cccnc1)Nc1nc2ccccc2s1 (stereo not drawn)	-6	-8
O=C(O)C1CC2(CCNCC2)CN1Cc1cccc2nonc12 (stereo not drawn)	7	2
Cc1ccccc1-c1cnnc(N2CCCC(CN3CCOCC3)C2)n1 (stereo not drawn)	-5	-7
CCNC(=O)C1(C)CCCN(Cc2cc(-c3ccccc3)n(C)n2)C1 (stereo not drawn)	4	4
CCN(Cc1nccc(N)n1)Cc1ccccc1C	13	10
COc1ccc(C=C(C#N)C(N)=S)cc1O	15	14
NCC(O)CC(=O)O (stereo not drawn)	11	3
Cc1cc(C)c(Cn2ccnc2CN(Cc2cccnc2)C(=O)C2CC2)c(C)c1	8	23
Cc1nc(SC2CCN(c3ccccc3F)C2=O)oc1C (stereo not drawn)	-2	-7
O=C1OC(c2ccccc2)OC(=O)C1=C/C=C/c1ccccc1 (stereo not drawn)	-6	-18
CN(C(=O)Cn1cnc2c(nnn2-c2ccc(OC(F)(F)F)cc2)c1=O)c1ccccc1	-2	-11
Cc1cnc(CN(C)C(=O)C23CC4CC(C)(CC(C)(C4)C2)C3)[nH]1	-5	-5
CCc1oc(C(=O)N2C[C@@H](N)C[C@H]2C(=O)NC)cc1CN1CCCC1	4	2
C/C(=N/NC(=O)CSc1nnc(-c2ccccc2)n1-c1ccccc1)c1ccco1	-1	-4
CCCn1cc(NC(=O)c2ccc3c4c(cccc24)CC3)ccc1=O	-10	-10
CCN(Cc1cnn(C)c1)C(=O)c1cc2ccccc2o1	2	3
COc1ccc(C)cc1S(=O)(=O)NCCNc1cc(-n2nc(C)cc2C)nc(C)n1	-9	-13

More records
SMILES	NPYLR7 agonist	NPYLR7 agonist max-min
CC(=O)NS(=O)(=O)c1ccc(N=Cc2nc(-c3cccc4ccccc34)oc2O)cc1	-2	-8
O=C(CSc1nc(=O)[nH]c2c1CCCC2)NCc1ccc2c(c1)OCO2	1	-2
CCN1CCN(S(=O)(=O)c2ccc(OC)c(N3CCN(C(=O)CCCCCCl)CC3)c2)CC1	27	25
CN(C)C(=O)C1CCCN1C(=O)c1ccoc1 (stereo not drawn)	7	6
C[n+]1ccn2cccc2c1-c1ccccc1	3	2
Cc1ccc(C(=O)NCC(=O)N2CCN(c3nccs3)CC2)cc1C	0	0
COc1ccc2nc(-c3ccc(C)c(NS(=O)(=O)c4cccs4)c3)cn2n1	-12	-19
CCCCn1cnc2c(-c3ccccc3)cn(CC(=O)N3CCN(c4ccc(F)cc4)CC3)c2c1=O	4	6
COC(=O)c1c(NC(=O)CSc2nnc(-c3ccncc3)n2C)sc2c1CCC2	-4	-4
CCSc1nc2c([nH]c3ccccc32)c(=O)n1-c1ccc(F)cc1	7	28
CCc1ccc(Cn2ccc3c(-c4ccc(C)cc4)c(OC(=O)N(CC)CC)ccc32)cc1	10	12
Cc1ccc(S(=O)(=O)N(C(=O)C2CCC2)c2ccc(O)cc2)s1	-1	-1
CN(CC(=O)Nc1cc(Cl)cc(Cl)c1)CC1OCCO1	-7	-14
OCC1(CCCc2ccccc2)CCN(Cc2cccnc2)CC1	4	9
Cc1cc(C)n(-c2ccc(C(=O)N3CCC(CO)(Cc4ccccc4)CC3)cc2)n1	2&10	1&2
Cc1c(CC(=O)N2CCSCC2)c2c(n1CC1CCCO1)CCCC2=O (stereo not drawn)	2	-2
CC(C)c1nccc(C2CC(=O)Nc3n[nH]c(-c4ccccc4)c32)n1 (stereo not drawn)	2	-6
CCCNC(=O)c1nnc2n1CCN(C(=O)C(c1ccccc1)c1ccccc1)C2	6	2
COc1cc(C)ccc1Oc1cc(N2CCN(C(=O)c3ccc(Cl)cc3)C(C)C2)ncn1 (stereo not drawn)	-7	-4
COc1ccc(S(=O)(=O)NC(C)Cn2cccn2)cc1OC (stereo not drawn)	0	0
Cc1noc(C)c1C(=O)N1CCc2c(c(C(=O)N(C)Cc3cscn3)nn2Cc2ccccc2)C1	17	7
C=CCn1c(=O)c2c(nc3n2CC(C)CN3c2ccc(CC)cc2)n(C)c1=O (stereo not drawn)	-8	-7
Cc1ccc(-c2c(C)oc(C)c2C(=O)NCC2CCCCC2)cc1	-1	-5
CC(=O)c1ccc(NC(=O)c2cccc(S(=O)(=O)N3CCOCC3)c2)cc1	3	3
CCCCc1ccc(-c2ccc(-n3cncc3C(=O)NC(C)c3ccc(Br)cc3)cc2)cc1 (stereo not drawn)	14	12

Next part:
SMILES	NPYLR7 agonist	NPYLR7 agonist max-min
Cc1ccc(NC(=O)NC(=O)C(C)Sc2nnnn2C(C)C)c(C)c1 (stereo not drawn)	13	8
COCCN(CC(=O)N1CCc2sccc2C1c1ccccc1C)C(=O)C(Cl)Cl (stereo not drawn)	4	5
COc1cccc(NC(=O)N(CCC(C)C)CC(=O)Nc2cc(C(C)(C)C)nn2-c2cccc(C)c2)c1	26	22
O=C1c2ccccc2C(=O)N1CC#CCN1CCN(C(c2ccccc2)c2ccccc2)CC1	14	12
Cc1c(Br)c([N+](=O)[O-])nn1CC(=O)NC(C)c1ccccc1 (stereo not drawn)	3	2
Cc1cc2c(cc1C(=O)N1CCOC(C(F)(F)F)C1)OCCO2 (stereo not drawn)	-2	-3
CC(C)C(NC(=O)C(=O)Nc1ccc(Cl)cc1F)c1ccccn1 (stereo not drawn)	2	-2
COCCC1(CNC(=O)CCC(=O)c2ccccc2)CC1	0	1
CN(CCCn1cccn1)C(=O)[C@]12CC[C@](C)([C@@H](O)C1)C2(C)C	15	6
O=C(O)COc1ccccc1CN1C[C@@H]2[C@@H]3CC[C@@H](C3)[C@@H]2C1	1	11
Cc1cccc(-n2nc(-c3ccccc3Cl)cc2C(=O)O)c1	15	19
Cn1c(=O)c2ccc(C(=O)N(Cc3ccc(C#N)cc3)CC(F)(F)F)nc2n(C)c1=O	4	-1
CCOC(=O)N1CCN(C(=O)c2csc(CN(CCOC)C(=O)Nc3ccc(OC)cc3)n2)CC1	-4	10
COc1ccccc1C(=O)Nc1cc(C)nn1-c1ncnc2c1cnn2-c1ccc(C)cc1C	5	4
Cc1ccccc1Cn1cnc2c(nnn2C)c1=O	0	6
CC(C)(N)COc1ccc(C(F)(F)F)cn1	5	4
COc1ccccc1C(C)N(C)C(=O)c1cn(Cc2c(F)cccc2F)nn1 (stereo not drawn)	8	5
O=C(c1ccc(SC(F)(F)F)cc1)N1CCC2(CC1)C(=O)NCN2c1ccccc1	-4	-9
Cc1ccccc1CO[C@]1(C(=O)NCc2ccco2)CC(OCc2ccc(C#N)cc2)[C@H](O)[C@H](O)C1 (stereo partly drawn)	7	11
CCOC(=O)C1C(=O)C=C(c2cccc(OC)c2)CC1c1cccc(OC)c1OC (stereo not drawn)	2	6
O=C(CC1COCCN1)NCc1csc2ccc(Cl)cc12 (stereo not drawn)	6	4
O=C(NCCc1ccccn1)c1coc(CN(Cc2cccc(Oc3ccccc3)c2)Cc2ccc3c(c2)OCO3)n1	17	17
COc1ccccc1CCNC(=O)CC(=O)Nc1ccc(F)c(Cl)c1	8	-6
Cc1ccsc1CN(CCN1CCOCC1)Cc1ccc(C(C)(C)O)o1	12	8
CN(C)CCCNC(=O)c1c(OCc2ccccn2)nn2ccsc12	8	3

More structures
SMILES	NPYLR7 agonist	NPYLR7 agonist max-min
COc1cccc(COC2CN(Cc3ccccn3)C(=O)CN(C(=O)c3cccc4nccnc34)C2)c1 (stereo not drawn)	17	7
COc1cc2c(cc1NC(=O)c1ccc3ccccc3n1)oc1ccccc12	9	7
COCCN(C)c1nc2nonc2nc1N1CCCCCC1	7	3
CNC(=O)C(=O)NCCCn1ccnc1	3	4
Cc1ccc(NC(=O)c2cc(-c3ccc(Cl)s3)nc3ccccc23)cc1[N+](=O)[O-]	-20	-19
C=CCc1c(C)c(C#N)c2nc3ccccc3n2c1N1CCCC1	7	13
CNC(=O)c1ccc(C2CCCN2C(=O)c2cnc3ccnn3c2C)s1 (stereo not drawn)	11&2	5&24
CNC(=O)C(C)N(C)Cc1ccccc1OC(F)F (stereo not drawn)	-1	12
CCN(C(=O)COCc1ccccc1)C(C)C(=O)c1c(C)c(C(=O)OC)n(C)c1C (stereo not drawn)	-5	-3
O=C(CNC(=O)c1cccs1)N=Nc1c(O)[nH]c2ccccc12	-4	-8
CC(C)c1cccc(N(C)C(=O)Cc2ccc(S(N)(=O)=O)cc2)c1	9	5
Cc1noc(-c2ccncc2)c1C(=O)NCc1cccnc1	15	16
O=C(NCCOc1ccc(F)cc1)c1ccc([N+](=O)[O-])cc1Cl	-8	-9
CCn1c(C2CCNCC2)nn(Cc2ccc(C(F)(F)F)nc2)c1=O	3	1
COc1cc(C(=O)OCC(=O)NC2CCCCC2)cc2c1OCCO2	-3	-3
N#CCOC(=O)C(=Cc1cccs1)c1cccs1	-1	7
CC(C)n1cc(-c2c(-c3ccccc3)ncn2CCc2cnc[nH]2)cn1	-7	-10
Cc1cc(C)c2c(c1C(=O)N1CCC3(CC1)OCCO3)CC(C)(C)C2=O	6	3
CCS(=O)(=O)Nc1ccc(C2=NN(S(C)(=O)=O)C(c3ccco3)C2)cc1 (stereo not drawn)	13	8
CS(=O)(=O)N(CC(=O)OCc1ccccc1Br)c1cccc(Cl)c1	4	1
N#CCCN(CCC#N)C(=O)C1CCCO1 (stereo not drawn)	7	6
O=C(c1ccc2c(c1)ncn2CCO)N1CCCC(CCc2ccccc2)C1 (stereo not drawn)	7	6
CCOCCOC1CCCN(C(=O)c2cccc(F)c2)C1 (stereo not drawn)	-5	1
CC(C)(C)C(=O)NCCc1nc2ccccc2n1Cc1ccccc1	-11	-14
COCCCNC(=O)c1ccccc1N1CCC(NC(=O)c2ccc(OC)cc2OC)CC1	-10	-9

Carrying on.
SMILES	NPYLR7 agonist	NPYLR7 agonist max-min
CC(C)CC(c1ncnn1C)n1cc(-c2ccc3c(c2)OCCO3)nn1 (stereo not drawn)	2&-2	0&-3
O=C(NCCNc1nc(-c2ccccc2Cl)nc2ccccc12)Nc1ccc(F)cc1F	18	25
C/C(=C/C(=O)N1CCCC1C(N)=O)c1ccccc1OC(F)F (stereo not drawn)	7	5
CN(Cc1ccsc1)Cc1nc(-c2cccc(Cl)c2)no1	15	10
CCOc1cc(S(=O)(=O)n2ccnc2CC)c(C)cc1C	4	4
CCC1CCCN(Cc2nc3c(cnn3-c3ccccc3)c(=O)[nH]2)C1 (stereo not drawn)	-22	-23

2 compounds drawn at random from the list so far, as already listed:
SMILES	NPYLR7 agonist	NPYLR7 agonist max-min
CC(C)CC(c1ncnn1C)n1cc(-c2ccc3c(c2)OCCO3)nn1 (stereo not drawn)	2&-2	0&-3
CCOc1cc(S(=O)(=O)n2ccnc2CC)c(C)cc1C	4	4

26 successive records already listed, quoted:
SMILES	NPYLR7 agonist	NPYLR7 agonist max-min
COCCC1(CNC(=O)CCC(=O)c2ccccc2)CC1	0	1
CN(CCCn1cccn1)C(=O)[C@]12CC[C@](C)([C@@H](O)C1)C2(C)C	15	6
O=C(O)COc1ccccc1CN1C[C@@H]2[C@@H]3CC[C@@H](C3)[C@@H]2C1	1	11
Cc1cccc(-n2nc(-c3ccccc3Cl)cc2C(=O)O)c1	15	19
Cn1c(=O)c2ccc(C(=O)N(Cc3ccc(C#N)cc3)CC(F)(F)F)nc2n(C)c1=O	4	-1
CCOC(=O)N1CCN(C(=O)c2csc(CN(CCOC)C(=O)Nc3ccc(OC)cc3)n2)CC1	-4	10
COc1ccccc1C(=O)Nc1cc(C)nn1-c1ncnc2c1cnn2-c1ccc(C)cc1C	5	4
Cc1ccccc1Cn1cnc2c(nnn2C)c1=O	0	6
CC(C)(N)COc1ccc(C(F)(F)F)cn1	5	4
COc1ccccc1C(C)N(C)C(=O)c1cn(Cc2c(F)cccc2F)nn1 (stereo not drawn)	8	5
O=C(c1ccc(SC(F)(F)F)cc1)N1CCC2(CC1)C(=O)NCN2c1ccccc1	-4	-9
Cc1ccccc1CO[C@]1(C(=O)NCc2ccco2)CC(OCc2ccc(C#N)cc2)[C@H](O)[C@H](O)C1 (stereo partly drawn)	7	11
CCOC(=O)C1C(=O)C=C(c2cccc(OC)c2)CC1c1cccc(OC)c1OC (stereo not drawn)	2	6
O=C(CC1COCCN1)NCc1csc2ccc(Cl)cc12 (stereo not drawn)	6	4
O=C(NCCc1ccccn1)c1coc(CN(Cc2cccc(Oc3ccccc3)c2)Cc2ccc3c(c2)OCO3)n1	17	17
COc1ccccc1CCNC(=O)CC(=O)Nc1ccc(F)c(Cl)c1	8	-6
Cc1ccsc1CN(CCN1CCOCC1)Cc1ccc(C(C)(C)O)o1	12	8
CN(C)CCCNC(=O)c1c(OCc2ccccn2)nn2ccsc12	8	3
COc1cccc(COC2CN(Cc3ccccn3)C(=O)CN(C(=O)c3cccc4nccnc34)C2)c1 (stereo not drawn)	17	7
COc1cc2c(cc1NC(=O)c1ccc3ccccc3n1)oc1ccccc12	9	7
COCCN(C)c1nc2nonc2nc1N1CCCCCC1	7	3
CNC(=O)C(=O)NCCCn1ccnc1	3	4
Cc1ccc(NC(=O)c2cc(-c3ccc(Cl)s3)nc3ccccc23)cc1[N+](=O)[O-]	-20	-19
C=CCc1c(C)c(C#N)c2nc3ccccc3n2c1N1CCCC1	7	13
CNC(=O)c1ccc(C2CCCN2C(=O)c2cnc3ccnn3c2C)s1 (stereo not drawn)	11&2	5&24
CNC(=O)C(C)N(C)Cc1ccccc1OC(F)F (stereo not drawn)	-1	12
